# GLA inh pH 4.5: inhibitors of human alpha-galactosidase A at pH 4.5; purified enzyme, 4-MU-alpha-Gal fluorescence, pH 4.5; AID 1467; activity change, negative = inhibition, % at 105 µM; 230,000 tested, under 10 active; P06280; inconclusive = small, poorly fitted or top-dose-only inhibition, or a rising curve; inactive = flat fitted curve, though single readings scatter; no compound was filed as active;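 also: 0% = full activity with enzyme and -100% = basal without enzyme; dose as in the result columns while the protocol names 77 µM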
# miR-21 FLuc: miR-21 reporter, rising signal; HeLa miR-21 FLuc reporter, luciferase, 48 h; Potency, µM (highest dose often 38.3 µM), for the others: top-dose reporter change, positive = more light; 340,000 tested, under 10 active; AID 2288; active = well fitted rising curve with a large enough effect; inconclusive = small, poorly fitted or top-dose-only effect; inactive = no such curve, though single readings can be large or run the other way;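 also: % of control where 0% means no effect; miR-21 action dims this reporter so a rising signal means less miR-21 action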
#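 HeLa cells stably expressing CMV-driven firefly luciferase with a downstream miR-21 binding sequence, endogenously expressing miR-21, were treated with titrations (up to about 40uM final) for 48 hours at 37 degree Celsius. Luciferase luminescence was read after lysis.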
# Rango complex inh: Rango-importin beta binding inhibition; Rango CFP/YFP FRET sensor + importin beta, 45 min; Q14974; 340,000 tested, 0.031% active; Potency, µM (doses to about 92.2 µM), for inactives: at the top dose inhibition of complex formation; AID 540263; active = rising FRET ratio curve, often small or poorly fitted; inconclusive = mostly compound fluorescence or quenching in the first reads; inactive = flat curves in all reads;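 also: potency is read from the fitted curve at half-maximal effect; 0% = DMSO wells and 100% = buffer wells lacking importin beta; nearly all actives have a fitted effect of over 15% in size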
# Target sequence (Q14974 whole entry, looked up): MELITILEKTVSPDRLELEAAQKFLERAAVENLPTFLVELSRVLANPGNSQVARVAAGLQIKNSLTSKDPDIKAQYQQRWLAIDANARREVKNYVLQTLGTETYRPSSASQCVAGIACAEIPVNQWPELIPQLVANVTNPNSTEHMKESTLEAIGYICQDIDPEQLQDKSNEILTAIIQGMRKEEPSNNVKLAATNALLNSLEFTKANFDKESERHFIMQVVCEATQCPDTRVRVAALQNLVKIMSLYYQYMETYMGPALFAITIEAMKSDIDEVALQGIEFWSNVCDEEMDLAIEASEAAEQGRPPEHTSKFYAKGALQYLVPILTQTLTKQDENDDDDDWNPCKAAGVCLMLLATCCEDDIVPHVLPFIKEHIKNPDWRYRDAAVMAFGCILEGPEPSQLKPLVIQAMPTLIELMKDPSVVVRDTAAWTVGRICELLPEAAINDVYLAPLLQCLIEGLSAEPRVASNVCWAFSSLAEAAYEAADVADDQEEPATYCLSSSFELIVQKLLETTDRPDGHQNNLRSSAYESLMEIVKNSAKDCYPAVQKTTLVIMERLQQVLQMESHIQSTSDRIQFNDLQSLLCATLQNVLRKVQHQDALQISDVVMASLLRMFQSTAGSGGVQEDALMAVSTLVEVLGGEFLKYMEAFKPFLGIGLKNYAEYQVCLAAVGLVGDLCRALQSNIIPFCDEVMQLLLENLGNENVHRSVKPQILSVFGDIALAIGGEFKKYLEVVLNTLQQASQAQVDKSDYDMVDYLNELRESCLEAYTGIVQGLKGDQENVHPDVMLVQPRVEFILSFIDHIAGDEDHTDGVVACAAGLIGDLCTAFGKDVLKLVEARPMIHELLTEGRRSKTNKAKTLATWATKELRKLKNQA
#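 FRET biosensor (snurportin 1 IBB flanked by EYFP and cerulean), 50 nM, with compound 5 min, then 0.125 microM importin beta in PBS, 1 mM DTT, 0.02% Tween-20, 0.1% BSA. CFP/YFP ratio read after 45 min at room temperature; pre-read flags interference.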
# Rango release inh: prevents RanGTP from dissociating the Rango-importin beta complex; AID 540253; Biochemical FRET Rango-importin beta, RanGTP-induced dissociation; Potency, µM (series often up to 46.1 µM), for inactives: top-dose activity change, negative = inhibition; 340,000 tested, 0.071% active; active means falling FRET ratio curve, often poorly fitted, with flat reads before Ran was added; inconclusive means other falling curves, or compound fluorescence or quenching; inactive means flat or rising ratio curve;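 also: potency is read from the fitted curve at half-maximal effect; % of control where 0% means no effect; nearly all actives have a fitted effect of over 45% in size; -100% = wells without RanGTP and RCC1; the record marks most hits as doubtful in a second field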
#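 Rango (0.1 uM)–importin beta (0.25 uM) complex; RanGTP-RCC1 trigger; 45 min RT; CFP/YFP FRET read.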
# The depositor's hits bear a star; ? = inconclusive; nt = no result given.
canonical_smiles	GLA inh pH 4.5	miR-21 FLuc	Rango complex inh	Rango release inh
CC(C)(C)C(=O)Cn1nc(Cl)nc1Cl	5	3%	-3.1%	8%
COc1cccc(-c2noc(-c3ccc(Cl)nc3)n2)c1	3	-38%	1.2%	8%
O=C(NC1CC1)C1=C[C@H](c2csc3ccccc23)C[C@H](OCCCCO)O1	2	-5%	-3.7%	-13%
O=C(C#Cc1cccc([N+](=O)[O-])c1)c1ccccc1	4	0%	nt	nt
CCCCNc1c(-c2ccc(OC)c(Sc3ccc(OC)cc3)c2)nc2cnccn12	nt	nt	?	?
O=C(/C=C/c1ccccc1Cl)NC(=S)Nc1ccccc1C(=O)NC1CCCCC1	5	-7%	2.9%	-9%
COc1ccc(-n2nc3c(c2NC(=O)C2CCCC2)CS(=O)(=O)C3)cc1	nt	0%	0.6%	14%
O=S(=O)(c1ccccc1C(F)(F)F)N1CCC(n2cnc3ccccc32)CC1	-2	19%	-1.6%	0%
N#CC(C(=O)C1CCCCC1)c1nc2ccccc2[nH]1 (stereo not given)	0	0%	0.6%	7%
O=C(CP(=O)(c1ccccc1)c1ccccc1)Nc1nc2ccccc2s1	-4	7%	4.1%	11%
O=C(c1cccc(S(=O)(=O)N2CCc3ccccc32)c1)N1CCOCC1	nt	nt	0.7%	1%
O=C(N/N=C/c1cccnc1)c1cc(Br)ccc1O	nt	-33%	-1.6%	-15%
O=C(NCc1ccc(F)cc1)c1cnc2sccn2c1=O	-5	-3%	1.5%	16%
O=S(=O)(NCCc1cccs1)c1ccc(Br)cc1	nt	1%	5.5%	9%
CC1CCC2C(C1)Nc1c(C(=O)O)cccc1C2(C)C (stereo not given)	26	-1%	-1.7%	-8%
O=C(Cc1ccc(-n2c(=O)c3ccccc3n(Cc3ccccc3F)c2=O)cc1)NCC1CCCO1 (stereo not given)	-6	-10%	3.4%	-18%
Cc1cc(C2C(=O)C(C(=O)c3ccc(Cl)cc3)C(=O)CC2(C)C)on1 (stereo not given)	4	1%	1.9%	12%
Cc1nc2cc(NC(=O)COc3ccccc3C#N)ccc2n1-c1ccccc1	9	-5%	0.2%	-1%
CCN(Cc1nc2ccccc2c(=O)[nH]1)C(=O)c1cccc(OCc2c(C)noc2C)c1	nt	nt	0.1%	-4%
CC(C)CCCCCCNC(=S)Nc1ccc(S(=O)(=O)N2CCOCC2)cc1	-4	?	-4.0%	19%
Cc1cc(S(=O)(=O)Nc2c(C(=O)O)[nH]c3ccccc23)ccc1F	-1	0%	2.7%	9%
O=C(Nc1cccc(Cl)c1)C1COc2ccccc2O1 (stereo not given)	nt	-34%	-0.6%	-3%
CC1(C)NC(=O)N(CCCCOc2cccc(C(F)(F)F)c2)C1=O	4	-9%	-1.1%	0%
CCOC(=O)C1CCN(C(=O)/C(C)=C\c2ccccc2)CC1	-5	-20%	-1.6%	-8%
CCCCCCCCCOC1OC(CO)C(O)C(O)C1NC(C)=O (stereo not given)	3	-9%	-3.5%	-21%
FC(F)(F)c1ccccc1NC(=S)N1CCCC1	-4	-2%	-2.7%	1%
O=C(Nc1ccc(F)cc1F)c1ccc2c(=O)n3c(nc2c1)CCC3	nt	nt	-0.1%	0%
COc1ccc(NC(=O)Nc2cccc3c2O[C@H](CN(C)S(C)(=O)=O)[C@@H](C)CN([C@H](C)CO)C3=O)cc1	nt	nt	-2.1%	0%
CCn1c(SC)nnc1C1CCN(S(=O)(=O)c2ccc(OC)cc2)CC1	11	1%	-1.1%	8%
COc1ccc(N2C(=O)CC(N3CCN(Cc4ccc5c(c4)OCO5)CC3)C2=O)cc1 (stereo not given)	-4	-2%	1.7%	-14%
CCOc1ccc2nc(COC(=O)c3cccs3)c(C(C)=O)[n+]([O-])c2c1	-2	-4%	4.2%	-2%
CCC(CC)c1nnc(NS(=O)(=O)Cc2ccccc2)s1	-8	-8%	1.3%	-8%
COc1ccc(C)c2sc(N(CCCN(C)C)C(=O)c3ccc(S(=O)(=O)N(C)C)cc3)nc12	-2	0%	3.7%	1%
COc1ccccc1CN1C[C@@H]2C[C@@H](c3[nH]c4ccc(C)cc4c3C)N3CCC[C@@]23C1=O	-2	5%	-2.4%	-1%
O=C(Nc1nnc(Cc2ccccc2)s1)c1ccco1	8	-50%	-0.5%	-4%
O=C(CNc1cc(S(=O)(=O)N2CCOCC2)ccc1NCC1CCCO1)Nc1ccc(C(F)(F)F)cc1 (stereo not given)	nt	nt	-0.2%	-1%
Cc1c(Cl)cccc1NC(=S)N1CCCN(Cc2ccccc2F)C1	-4	-4%	0.3%	4%
C/C(=N\N1C(C)CCCC1C)c1ccccc1O (stereo not given)	nt	-1%	-1.5%	-6%
COc1ccc(-c2cc3cc(C(=O)O)ccn3c2C(=O)c2ccccc2)cc1	-2	-8%	?	?
O=C(Nc1cccc(F)c1)c1ccco1	7	-27%	-3.1%	18%
Cc1cc(SCC(=O)c2cccs2)n2nc(C)c(-c3ccc(Cl)cc3)c2n1	-1	3%	-0.7%	31%
CC1(C)OC(=O)C(=CNC(CO)C(=O)O)C(=O)O1 (stereo not given)	4	3%	-0.6%	12%
COC1(OC)N=C(N)C2(C#N)C(c3ccc(F)cc3)C12C#N (stereo not given)	-1	-3%	?	-24%
COc1ccc(Cc2noc(-c3ccc(C)cc3)n2)cc1	-3	-35%	0.4%	13%
O=c1cc(CSc2ccc(S(=O)(=O)N3CCCCC3)cn2)nc2sccn12	-3	0%	2.2%	-4%
CCc1nc(SCc2ccccc2C#N)n[nH]1	nt	-10%	0.0%	8%
CCOC(=O)COc1ccc(S(=O)(=O)NCC2CCCO2)cc1 (stereo not given)	4	-4%	3.7%	-7%
O=C(COC(=O)CCc1c[nH]c(=O)[nH]1)Nc1ccccc1Cl	-5	-3%	?	-29%

# Pulled one by one from above (3):
canonical_smiles	GLA inh pH 4.5	miR-21 FLuc	Rango complex inh	Rango release inh
Cc1cc(SCC(=O)c2cccs2)n2nc(C)c(-c3ccc(Cl)cc3)c2n1	-1	3%	-0.7%	31%
O=c1cc(CSc2ccc(S(=O)(=O)N3CCCCC3)cn2)nc2sccn12	-3	0%	2.2%	-4%
CCOC(=O)COc1ccc(S(=O)(=O)NCC2CCCO2)cc1 (stereo not given)	4	-4%	3.7%	-7%

# (next part)
canonical_smiles	GLA inh pH 4.5	miR-21 FLuc	Rango complex inh	Rango release inh
CC(=O)c1cc2c(cc1NC(=O)c1cc(C)nn1-c1ccccc1)OCO2	-2	9%	1.3%	0%
O=S(=O)(c1ccc(F)cc1)N1CCn2c(nc3ccccc32)C1	-4	-2%	-0.9%	22%
O=C(NC1CCCCC1)c1c(O)nc2sccn2c1=O	nt	nt	-0.2%	-5%
CC(C)(C)C(=O)Nc1nnc(-c2ccccc2)c(-c2ccccc2)n1	-8	-1%	3.8%	-8%
O=C(O)c1ccccc1N/N=C/c1cc(Br)cc(Br)c1O	6	-77%	?	?
O=S(=O)(Nc1ncccn1)c1ccc(NC(=S)NCCc2ccccc2)cc1	5	-8%	0.0%	-9%
CCOC(=O)C(NCCc1ccccc1)(NC(=O)CC)C(F)(F)F (stereo not given)	12	-11%	-1.8%	0%
COc1ccc(-c2cc(=O)[nH][nH]2)cc1	-6	1%	1.3%	22%
CC(=O)NC1N=C(C)N(c2ccccc2)C1=O (stereo not given)	2	2%	-3.6%	-13%
COc1ccc(C(=O)c2c(C)oc3cc([N+](=O)[O-])c(O)c([N+](=O)[O-])c23)cc1	-4	3%	1.0%	0%
Cc1cc(C)c(S(N)(=O)=O)c(C)c1N(C)S(=O)(=O)c1ccc(Cl)cc1	nt	-1%	0.3%	0%
COc1cccc(=O)c2c(C)n(CC(=O)c3ccccc3)c(C)c12	nt	-4%	?	?
COc1cccc(NC(=O)CN(C)C(=O)CCNC(=O)c2ccccc2Cl)c1	nt	nt	3.5%	-4%
Cc1c(NS(=O)(=O)c2ccc(NCCN3CCOCC3)c([N+](=O)[O-])c2)c(=O)n(-c2ccccc2)n1C	-2	1%	-2.2%	-28%
CCCCn1c(C)nc2c(=O)n(C)c(=O)[nH]c21	1	-2%	-3.6%	-3%
COc1ccc(C2CC(=O)C(C=NCCN3CCN(C(C)=O)CC3)=C(O)C2)cc1OC (stereo not given)	1	-2%	nt	nt
CC1(C)N=C(SCC(=O)Nc2ccc(Cl)cc2)C(c2ccc(Cl)cc2)=N1	-4	29%	0.1%	-6%
Cc1ccc(S(=O)(=O)N(CCC(=O)NCc2ccccc2F)c2ccccc2)cc1	nt	nt	3.2%	-11%
COc1ccccc1N(CC(=O)NCc1ccccc1C)S(=O)(=O)c1ccc(C)cc1	nt	11%	-3.0%	10%
O=c1nc(N2CCOCC2)nc2n1CCO2	14	-7%	1.3%	9%
COc1ccc([N+](=O)[O-])cc1Nc1ncnc2ccccc12	7	-8%	0.1%	3%
CC(=O)NC(NC(=S)Nc1cccc(Br)c1)C(Cl)(Cl)Cl (stereo not given)	-5	12%	7.2%	-6%
CC(=O)c1cccc(NC(=O)N2CCOCC2)c1	nt	-1%	1.5%	-8%
CC(C)(C)NS(=O)(=O)c1ccc2c(c1)oc(=O)c1cc(S(=O)(=O)NC(C)(C)C)ccc12	9	-2%	-0.4%	-17%
O=C(COC(=O)/C=C/c1cccc(F)c1)NC1CCCC1	nt	nt	-1.3%	2%
CC(=O)c1ccc(N(C(=O)Cn2nnc3ccccc32)C(C(=O)NC2CCCCC2)c2cn(C)nc2C)cc1 (stereo not given)	-4	-3%	0.4%	-5%
O=C(N/N=C/c1cccs1)/C(=C/c1ccccc1)NC(=O)c1ccccc1	-3	-6%	-2.9%	13%
Cc1ccccc1C(=O)NCC(=O)OCCCOC(=O)CNC(=O)c1ccccc1C	nt	nt	-0.8%	1%
O=C1CCC(C(=O)NCc2ccccc2)N1 (stereo not given)	nt	0%	-0.8%	6%
CCCOc1ccc(CNC(=S)Nc2ccccc2)cc1Cl	nt	-1%	-1.3%	19%
CCCCn1c(N)c(N(CCOC)C(=O)CSc2ccc([N+](=O)[O-])cc2)c(=O)[nH]c1=O	nt	nt	-1.0%	-13%
NC(=O)C1=C[C@@H](c2ccccc2)C[C@@H](OCc2ccc(CO)cc2)O1	-1	-9%	-2.8%	-3%
O=C(NC1CC(=O)c2sccc21)c1cccc(C(F)(F)F)c1 (stereo not given)	-3	-2%	-1.1%	19%
O=C(COC(=O)[C@@H]1CCCN1C(=O)c1cccs1)Nc1cccc([N+](=O)[O-])c1	nt	nt	-2.4%	2%
O=C(COc1ccccc1[N+](=O)[O-])NNC(=O)Nc1cccc2ccccc12	-6	-16%	1.1%	12%
Cc1ccc(CNc2ccc(N3CCOCC3)c(C(=O)O)c2)s1	-3	-10%	-0.8%	5%
Cc1cc(=O)c2c(C)ccc(C)c2[nH]1	3	-1%	-2.2%	-12%
NS(=O)(=O)c1ccc(NS(=O)(=O)c2ccc3c(c2)OCCO3)cc1	nt	-1%	4.2%	18%
COc1cccc(CC(=O)N2CCN(S(=O)(=O)c3ccc(Br)cc3)CC2)c1	nt	nt	-2.2%	-1%
CCCCCCCCOC(=O)c1c(CSC(=N)N)n(C)c2cc(Br)c(OC(C)=O)cc12	-4	13%	0.3%	5%
CCOC(=O)C1CCN(C(=O)c2ccccc2NS(=O)(=O)c2ccccc2)CC1	nt	-1%	-2.1%	-10%
CC(C)Oc1ccc(Br)cc1C(=O)N/N=C/c1c[nH]c2ccccc12	nt	19%	-1.1%	-1%
O=C(Nc1ccc(Cl)c(S(=O)(=O)N2CCCCC2)c1)C1=COCCO1	nt	nt	1.5%	-6%
CC1Cc2ccccc2N1C(=O)CSc1nc(-c2ccccc2)cs1 (stereo not given)	-1	-22%	11%	19%
CCCCNS(=O)(=O)C1CCS(=O)(=O)C1 (stereo not given)	1	0%	-1.8%	-7%
Cn1nnnc1SCC(=O)Nc1ccccc1C(=O)NC1CC1	6	0%	-2.6%	8%

# Bioassay records deposited in PubChem by National Center for Advancing Translational Sciences (NCATS).

# A portion of the library; count on the stated rates, not on these rows.
